CtBP-E1A inh – CtBP/E1A binding inhibition. actives 0.49% (n = 340,000). AlphaScreen GST-E1A/His-CtBP binding, 1536-well; hits give low values; control for the full effect not named in the record. activity change, % (test concentration not listed). AID 651724; in the data active means activity change below about -65%; inconclusive means about -30% to -65%; inactive means above about -30%; also: % is scaled to controls: 0 for no effect and ±100 for the full control effect; compound concentration not given in the record
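Homogeneous bead-based format: GST-tagged E1A captured on glutathione donor beads, His-tagged CtBP on nickel acceptor beads; compounds precede bead addition by 2 h at 37 °C.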
Sfp PPTase inh – blocks B. subtilis Sfp PPTase activity | Biochemical Sfp PPTase activity, qHTS | Potency, µM, without a hit: max response, negative = inhibition, most hits filed as inhibitors | actives 3.5% (n = 310,000); active = well fitted inhibition curve with a large enough effect; inconclusive = small, poorly fitted or top-dose-only effect, or another doubt; inactive = no such curve, though single readings can be large or run the other way;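 also: the enzyme is Sfp with the accession as filed and its product quenches rhodamine fluorescence; potency is read from the fitted curve at half-maximal effect; 0% = enzyme reaction without inhibitor and -100% = no enzyme wells; top concentration of the series not given in the record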
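After 15 min at room temperature with compound, 15 nM Sfp received 5 uM rhodamine-CoA plus 12.5 uM BHQ-2-ybbR (50 mM Hepes pH 7.6, 10 mM MgCl2). Rate came from the fluorescence difference over 30 min, ex 525/em 598 nm.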
D2 agonist – agonists of human D2 dopamine receptor (beta-arrestin) | activation, % (concentration not given with the values) | DiscoveRx PathHunter D2 beta-arrestin, luminescence, 90 min; 100% = 57 uM dopamine signal | AID 624465 | P14416 | actives 0.084% (n = 360,000); in the data active = activation above about 40%; inconclusive = about 15% to 40%; inactive = below about 15%; also: compound concentration not given in the record; the text of the record calls up to 30% inactive
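Agonist mode: compounds alone added to overnight-plated D2 PathHunter cells for 90 min at 37 C, with 57 uM final dopamine (EC100) defining full response. Beta-arrestin recruitment detected by chemiluminescent reagent, read after 1 h at ambient temperature.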
D2 PAM – human D2 receptor positive allosteric modulation; AID 624464; DiscoveRx D2 beta-arrestin cells, luminescence, 90 min; 100% = 57 uM dopamine signal; actives 0.23% (n = 360,000); potentiation, % (no concentration beside the values); P14416; active = potentiation of 50% or more; inconclusive = 30% to 50%; inactive = 30% or less;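 also: compound concentration not given in the record; tested on top of an EC20 dose of dopamine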
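D2 cells co-treated with compound plus 50 nM dopamine (EC20) for 90 min at 37 deg C to detect potentiation. Beta-arrestin recruitment was read as enzyme-fragment luminescence after 1 h at ambient temperature. Full response was set by 57 uM dopamine.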
TRPV1 PAM – enhances activation of the human vanilloid receptor TRPV1. actives 0.02% (n = 320,000). TRPV1-expressing cells, Fluo-8 calcium influx, capsaicin EC20 potentiation; host cell line not named in the record; control for the full effect not named in the record. potentiation, % at 8.33 µM. AID 540277; active means potentiation above 80%; inconclusive means 30% to 80%; inactive means below 30%; also: 0% is about no effect
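TRPV1-expressing cells were cultured overnight at 35.5C and loaded with Fluo-8 calcium dye for 40 to 90 min at room temperature. After a 10 s baseline, compound was added and calcium influx was read kinetically for 3 min (ex 480/em 520 nm).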
PINK1 modulator – PINK1 expression modulation; PINK1 immunofluorescence, high-content cytometry, 24 h; Potency, µM (series often up to 76.6 µM), without a hit: at the top dose activation (PINK1 increase), actives largely listed as activators; actives 0.2% (n = 410,000); active = well fitted activation curve with a large enough effect; inconclusive = small, poorly fitted or top-dose-only effect; inactive = flat fitted curve, though single readings scatter; cell line not stated here;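 also: potency is read from the fitted curve at half-maximal effect; % of control where 0% means no effect; nearly all actives have a fitted effect of over 65% in size; a mitochondrial uncoupler was the plate control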
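Decision-based qHTS: stable cells, 24 h exposure to five compound concentrations, CCCP as control. Fixed cells stained for PINK1 plus nuclear, mitochondrial and cell markers, cytometer read.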
Six1-Eya2 blk – Six1/Eya2 interaction inhibition. Q15475+O00167. AlphaScreen GST-Six1/His-Eya2 binding, biochemical; hits give low values; control for the full effect not named in the record. activity change, % (concentration not given with the values). actives 0.56% (n = 360,000). AID 651725; in the data active = activity change below about -65%; inconclusive = about -30% to -65%; inactive = above about -30%; also: % is scaled to controls: 0 for no effect and ±100 for the full control effect
Target sequence (O00167 whole entry, looked up): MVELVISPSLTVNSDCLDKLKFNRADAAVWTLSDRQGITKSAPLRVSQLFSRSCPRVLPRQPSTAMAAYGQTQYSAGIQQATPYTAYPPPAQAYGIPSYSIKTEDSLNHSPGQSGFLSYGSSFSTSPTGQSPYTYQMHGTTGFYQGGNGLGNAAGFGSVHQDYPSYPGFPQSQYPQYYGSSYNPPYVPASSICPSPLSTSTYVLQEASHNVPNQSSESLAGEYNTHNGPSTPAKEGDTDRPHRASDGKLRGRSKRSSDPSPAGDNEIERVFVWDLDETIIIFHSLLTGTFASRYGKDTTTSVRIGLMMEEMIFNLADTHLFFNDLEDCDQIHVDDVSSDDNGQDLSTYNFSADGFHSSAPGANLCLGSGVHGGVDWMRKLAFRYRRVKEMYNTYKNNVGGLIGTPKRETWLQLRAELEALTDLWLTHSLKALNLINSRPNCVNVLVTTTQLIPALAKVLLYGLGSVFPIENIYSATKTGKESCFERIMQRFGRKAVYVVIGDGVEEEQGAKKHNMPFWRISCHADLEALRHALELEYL
Target sequence (Q15475 whole entry, looked up): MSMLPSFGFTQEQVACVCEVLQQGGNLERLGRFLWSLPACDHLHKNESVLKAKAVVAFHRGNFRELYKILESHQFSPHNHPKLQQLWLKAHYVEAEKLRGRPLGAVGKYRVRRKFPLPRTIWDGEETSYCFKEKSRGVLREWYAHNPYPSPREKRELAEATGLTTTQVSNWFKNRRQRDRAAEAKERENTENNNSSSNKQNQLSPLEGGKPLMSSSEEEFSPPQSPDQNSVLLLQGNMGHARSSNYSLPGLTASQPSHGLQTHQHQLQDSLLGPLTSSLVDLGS
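Six1/Eya2 binding was read as AlphaScreen signal after compounds were pinned into GST-Six1 plus His-tagged Eya2 (5X stock 250/500 nM) in pH 8.0 Tris/NaCl/TCEP buffer, beads added, then incubated 1 h, 37 C, dark.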
Numbers without * were called inactive; ? = inconclusive; . = not tested or not shown; & = joins results of further samples; [ ] = another dose, or the depositor's remark.

[1] COc1ccc(Cl)cc1NC(=O)c1nnn(CC(=O)Nc2ccc(OC)c(OC)c2)c1N
[2] Cc1ccc(S(=O)(=O)NC(N)=NCCc2ccccc2)cc1C
[3] CCN(CC(=O)Nc1ccccc1C(F)(F)F)C(=O)CSCc1ccc(C)cc1
[4] CCn1cc(C(=O)N2CCN(c3ccc(OC)cc3)CC2)c2cc(OC)c(OC)cc2c1=O
[5] Cc1ccc(C)c(NC(=O)CN2C(=O)COc3ccc(S(=O)(=O)N4CCCC4)cc32)c1
[6] COc1ccc(CC(=O)Nc2cccc(-c3nnc(-c4ccccc4)o3)c2)cc1OC
[7] CCOc1cc2c(cc1OC)C(NC(=O)c1ccco1)CC2=O (stereo unspecified)
[8] COCc1cccc(N2C(=O)CC(C3C=C(C)C4C(=O)N(c5cccc(COC)c5)C(=O)C4C3)C2=O)c1 (stereo unspecified)

screen / no.	1	2	3	4	5	6	7	8
CtBP-E1A inh	.	-2	3	0	1	-15	5	3
Sfp PPTase inh	1%	-20%	.	15%	9%	?	14%	19%
D2 agonist	2.6	0.0	-2.9	-0.1	-1.9	14	2.6	0.8
D2 PAM	-4	-16	-5	-6	0	54*	-1	-4
TRPV1 PAM	5	3	-18	-4	7	3	-2	-1
PINK1 modulator	-0.2%	1.2%	2.0%	1.1%&0.2%	10%	.	3.0%	0.9%
Six1-Eya2 blk	0	8	4	-7	-4	-18	-5	2

Just CtBP-E1A inh, Sfp PPTase inh and TRPV1 PAM, for some of the entries so far:
cpd	compound	CtBP-E1A inh	Sfp PPTase inh	TRPV1 PAM
1	COc1ccc(Cl)cc1NC(=O)c1nnn(CC(=O)Nc2ccc(OC)c(OC)c2)c1N	.	1%	5
2	Cc1ccc(S(=O)(=O)NC(N)=NCCc2ccccc2)cc1C	-2	-20%	3
3	CCN(CC(=O)Nc1ccccc1C(F)(F)F)C(=O)CSCc1ccc(C)cc1	3	.	-18
4	CCn1cc(C(=O)N2CCN(c3ccc(OC)cc3)CC2)c2cc(OC)c(OC)cc2c1=O	0	15%	-4
5	Cc1ccc(C)c(NC(=O)CN2C(=O)COc3ccc(S(=O)(=O)N4CCCC4)cc32)c1	1	9%	7

Random excerpt: 4 records from the list.
[1] COc1ccc(Cl)cc1NC(=O)c1nnn(CC(=O)Nc2ccc(OC)c(OC)c2)c1N
[7] CCOc1cc2c(cc1OC)C(NC(=O)c1ccco1)CC2=O (stereo unspecified)
[2] Cc1ccc(S(=O)(=O)NC(N)=NCCc2ccccc2)cc1C
[3] CCN(CC(=O)Nc1ccccc1C(F)(F)F)C(=O)CSCc1ccc(C)cc1

screen / no.	1	7	2	3
CtBP-E1A inh	.	5	-2	3
Sfp PPTase inh	1%	14%	-20%	.
D2 agonist	2.6	2.6	0.0	-2.9
D2 PAM	-4	-1	-16	-5
TRPV1 PAM	5	-2	3	-18
PINK1 modulator	-0.2%	3.0%	1.2%	2.0%
Six1-Eya2 blk	0	-5	8	4

The listing continues:
[9] O=C(O)CCC(=O)c1ccc(C2CCCCCC2)cc1
[10] OCCN(Cc1ccccc1)Cc1ccc(Cl)cc1
[11] CCOC(=O)c1sc(NC(=O)COC(=O)CNC(=O)C2CCCCC2)c(C(=O)OCC)c1C
[12] OC(COCc1ccccc1)CN1CCCCC1 (stereo unspecified)
[13] Cc1cc([N+](=O)[O-])nn1CC(=O)N1CCN(Cc2ccccc2)CC1
[14] c1ccc(CCNC2=NCCS2)cc1
[15] Cn1c(C(=O)NC2CCCC2)cc2c(=O)n(C)c3ccccc3c21
[16] COc1ccc(NC(=O)C(=O)NCCN2CCN(C(=O)c3cccc(Br)c3)CC2)cc1

screen / no.	9	10	11	12	13	14	15	16
CtBP-E1A inh	10	9	0	.	7	0	0	1
Sfp PPTase inh	.	-19%	5%	14%	12%	16%	9%	18%
D2 agonist	-0.8	-2.9	-1.7	-1.8	-18	0.0	-6.1	-3.7
D2 PAM	6	-29	0	-7	-27	-8	-1	-5
TRPV1 PAM	.	-10	1	-1	15	3	.	15
PINK1 modulator	-0.7%	.	7.5%	0.5%	0.2%	-0.3%	1.4%	1.4%
Six1-Eya2 blk	1	6	4	2	0	1	1	-7

[17] O=C(COC(=O)c1cc2ccccc2oc1=O)Nc1cccc(S(=O)(=O)N2CCCCCC2)c1
[18] O=C(NNC(=O)C1CCCCC1)c1ccco1
[19] O=C(NCC1CCCO1)C1c2ccccc2C(=O)N1Cc1ccc2c(c1)OCO2 (stereo unspecified)
[20] O=C(O)CNC(=S)N(Cc1ccco1)Cc1ccccc1Cl
[21] CCCN1CCN(C(=O)c2cc(COc3ccc4ncccc4c3)on2)CC1
[22] COc1ccc(-n2c(=S)[nH]c3cc(C(=O)Nc4ccc(F)cc4)ccc3c2=O)c(OC)c1
[23] Cc1nc2nc(SCC(=O)N3CCOCC3)nn2c(C)c1Cc1ccccc1
[24] CC(C)Cn1c(N)c(C(=O)COC(=O)CCc2nc3ccccc3c(=O)[nH]2)c(=O)n(C)c1=O

screen / no.	17	18	19	20	21	22	23	24
CtBP-E1A inh	-1	-1	5	1	-2	-6	-3	-6
Sfp PPTase inh	33%[activator]	17%	9%	-20%	-6%	27%	18%	.
D2 agonist	0.3	-1.2	0.4	-3.4	2.0	-3.6	-3.5	-4.8
D2 PAM	-10	-1	-14	11	-10	-11	-5	-4
TRPV1 PAM	26	-3	2	2	10	-11	7	3
PINK1 modulator	13%	-0.4%	0.5%	1.7%	0.2%	1.4%	-1.4%	-0.1%
Six1-Eya2 blk	2	4	3	6	2	-9	-5	1

[25] Cc1cc(NC(=O)c2ccc(S(=O)(=O)N(C)C)cc2)no1
[26] CCCC1(CCC)NC(=O)N(CC(=O)Nc2ccc(Cl)c(S(=O)(=O)N3CCOCC3)c2)C1=O
[27] COC(=O)Cc1cnc(NC(=O)CSc2nc(C(C)C)cc(=O)[nH]2)s1
[28] NNC(=O)COc1ccccc1[N+](=O)[O-]
[29] O=C(CSc1nc2ccccc2c(=O)n1CC1CCCO1)N1CCN(c2ccccc2)CC1 (stereo unspecified)
[30] Cc1nc2cc(C(=O)O)ccc2n1-c1ccccc1
[31] O=S(=O)(CCc1ccccc1)CS(=O)(=O)CCc1ccccc1
[32] CC(OC(=O)c1cccc(S(=O)(=O)Nc2ccccc2F)c1)C(=O)NCc1ccc2c(c1)OCO2 (stereo unspecified)

screen / no.	25	26	27	28	29	30	31	32
CtBP-E1A inh	6	-1	4	.	40	4	20	7
Sfp PPTase inh	19%	.	8%	-2%	.	5%	.	14%
D2 agonist	-3.2	-2.4	-1.8	0.5	-1.5	-2.3	-0.2	4.1
D2 PAM	-18	1	-4	-12	-11	-1	-4	-15
TRPV1 PAM	-15	.	-4	-3	.	.	.	14
PINK1 modulator	-2.2%	2.6%	1.2%	-1.1%	2.4%[38.3 µM]	1.1%	-0.2%	-2.0%
Six1-Eya2 blk	-1	-14	22	-2	-15	7	19	11

[33] O=C1CCC(O)CCN1CCSc1ccccc1 (stereo unspecified)
[34] CCc1c(C)nc(SCC(N)=O)c(C#N)c1C
[35] CCN1C(=NCc2ccc(OC)cc2)N[C@@H](c2ccccc2)C(C(=O)OC)=C1C
[36] CO/N=C/CC(=O)c1ccc(-c2ccccc2)cc1
[37] CS(=O)(=O)N(CC(=O)Nc1ccc(S(=O)(=O)N2CCCC2)cc1)c1ccccc1F
[38] O=C(CSc1nnc2ccccn12)c1ccc(OC(F)F)cc1OC(F)F
[39] CCCCN1CC(=O)N2[C@H](c3ccc(OC)cc3)[C@@H]3C(=O)N(CC)C(=O)[C@@H]3[C@]2(Cc2ccccc2)C1=O
[40] Cc1[nH]c2ccccc2c1CCCO

screen / no.	33	34	35	36	37	38	39	40
CtBP-E1A inh	6	3	2	5	-5	-1	3	-2
Sfp PPTase inh	10%	9%	8%&5%	-17%	2%	6%	17%	18%
D2 agonist	-2.1	-1.7	-2.6	-4.4	3.7	-1.6	-0.9	-2.3
D2 PAM	-1	-3	-14	-3	10	-7	-5	-4
TRPV1 PAM	16	-7	14&-1	-2	-3	14	?	21
PINK1 modulator	0.4%	3.4%[38.3 µM]	-0.2%	7.3%	-2.8%	-0.2%	-0.8%	1.1%
Six1-Eya2 blk	2	4	6	12	5	4	3	0

[41] CC1CCCN(CCC(=O)Nc2ccccc2)C1 (stereo unspecified)
[42] CCNC(=O)CC1C(=O)N(c2ccc(C)cc2)C(=O)N1Cc1ccccn1 (stereo unspecified)
[43] Cc1ccc(CCNC(=O)C2CCCN(C(=O)c3cc4sccc4n3C)C2)cc1 (stereo unspecified)
[44] Cn1c(=O)c2c(SCC(=O)Nc3ccccc3F)nc(-c3ccccc3F)nc2n(C)c1=O
[45] Cc1occc1C(=O)NCc1ccc2c(c1)OCO2
[46] CN(C)S(=O)(=O)c1ccc(N2CCCC2)c(C(=O)NC2(C)CCS(=O)(=O)C2)c1 (stereo unspecified)
[47] COc1cc2c(cc1OC)C(c1ccco1)CC(=O)N2 (stereo unspecified)
[48] CCc1c(C)sc(NC(=S)N2CC(C)OC(C)C2)c1C(=O)OC (stereo unspecified)

screen / no.	41	42	43	44	45	46	47	48
CtBP-E1A inh	5	3	5	-11	-3	-3	-1	.
Sfp PPTase inh	10%	7%	11%	?	2%	.	8%	?
D2 agonist	-5.6	-3.2	-0.9	-2.5	-1.9	-0.1	-4.3	2.2
D2 PAM	-18	-24	-18	-4	-8	-31	-4	68*
TRPV1 PAM	-2	13	0	5	-2	2	-10	-1
PINK1 modulator	0.1%	.	.	?	-0.3%	-1.3%	1.2%	2.0%
Six1-Eya2 blk	3	3	-1	5	0	3	4	0

[49] CCOc1ccc2cc(C3CC(c4ccco4)=NN3S(C)(=O)=O)c(Cl)nc2c1 (stereo unspecified)
[50] O=C(NCc1ccccc1Cl)C1CCC(CNc2c(N3CCOCC3)c(=O)c2=O)CC1 (stereo unspecified)
[51] Cc1ccc(-c2cnc3c(Cl)c(C)nn3c2)cc1
[52] O=C(CSc1cccc[n+]1[O-])Nc1cc([N+](=O)[O-])ccc1Cl
[53] COc1ccc(-n2nnnc2SCC(=O)Nc2ccccc2F)cc1

screen / no.	49	50	51	52	53
CtBP-E1A inh	-13	-24	7	6	.
Sfp PPTase inh	2%	-4%	4%	-6%	8%
D2 agonist	2.8	-2.5	4.7	-3.2	-1.8
D2 PAM	-4	-4	-4	-2	0
TRPV1 PAM	6	-8	?	6	-13
PINK1 modulator	7.6%	0.9%	6.1%	-0.2%	4.8%
Six1-Eya2 blk	-5	-23	15	2	-2

Source: PubChem BioAssay (National Center for Advancing Translational Sciences (NCATS))
